# Screening results deposited in PubChem by Broad Institute.
# FGF22 binding – binders of human FGF22 protein, primary screen, FGF22 synaptogenesis inhibitor project, biophysical, thermal shift, single point; AID 651658, 2012; calls only at 9.99 µM; 340,000 compounds, 1.5% hits; Fibroblast growth factor 22 (Homo sapiens), Q9HCT0; recombinant FGF22 thermal shift, SYPRO orange fluorescence; percent of sucrose octasulfate shift, DMSO zero;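 active means melting point raised past a set limit in the mean and every replicate; inconclusive means no clear call; three in four hits are not shown here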
# Target sequence (Q9HCT0 whole entry, looked up): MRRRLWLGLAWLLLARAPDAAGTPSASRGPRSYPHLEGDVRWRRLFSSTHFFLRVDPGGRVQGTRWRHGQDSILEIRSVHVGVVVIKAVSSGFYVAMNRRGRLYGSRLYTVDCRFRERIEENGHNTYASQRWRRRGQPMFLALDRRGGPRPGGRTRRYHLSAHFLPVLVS
# Ecoli rRNA inh – reduced GFP signal of wild-type E. coli, primary screen, bacterial rRNA inhibitor project, GFP/RFP fluorescence, OD600, single point. E. coli WT GFP vs humanized-ribosome RFP mutants, 24 h; stronger effect = lower value; DMSO median 0, no signal -100. GFP signal change (wild-type ribosome), % (concentration not given with the values). 350,000 compounds, 1.6% hits. AID 720706, 2013;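 active means significant combined selectivity score with lowered wild-type GFP, culture density cut under 30%, mutant RFP and density less affected; inactive means any of these conditions unmet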; further: one replicate is shown; some compounds called inactive have numbers as strong as hits
# AF4-AF9 inh – inhibitors of AF4 peptide binding to AF9, primary screen, biochemical, AlphaScreen, biotin-AF4 peptide, FLAG-AF9, single point. AID 651704, 2012. inhibition, % at 10 µM. 350,000 compounds, 0.47% hits;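 active means every replicate reaching a set inhibition limit, whatever the replicate mean, cut at about 25% in these data; inconclusive means mean inhibition reaches that limit but some replicates miss it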;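 further: 0% = plate neutral control median and 100% = total signal loss; the record names both 10 and 1 µM as test concentration; the first replicate is given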
# Target sequence (P42568 whole entry, looked up): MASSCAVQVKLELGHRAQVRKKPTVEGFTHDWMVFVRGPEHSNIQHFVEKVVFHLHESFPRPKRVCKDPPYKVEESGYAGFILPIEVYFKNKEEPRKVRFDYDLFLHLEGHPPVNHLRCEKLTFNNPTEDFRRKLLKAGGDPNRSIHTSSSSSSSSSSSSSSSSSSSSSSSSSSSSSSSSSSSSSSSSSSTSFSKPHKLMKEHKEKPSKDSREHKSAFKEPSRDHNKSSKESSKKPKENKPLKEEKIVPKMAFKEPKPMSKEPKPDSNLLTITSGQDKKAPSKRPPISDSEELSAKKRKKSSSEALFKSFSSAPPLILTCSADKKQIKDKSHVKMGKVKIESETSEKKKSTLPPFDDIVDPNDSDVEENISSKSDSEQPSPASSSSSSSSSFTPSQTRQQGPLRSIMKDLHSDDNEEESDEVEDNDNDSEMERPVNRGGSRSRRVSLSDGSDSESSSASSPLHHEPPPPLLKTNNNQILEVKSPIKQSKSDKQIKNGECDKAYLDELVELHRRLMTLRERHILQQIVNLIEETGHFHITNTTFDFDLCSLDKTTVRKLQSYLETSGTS
# Beta apoptosis – inhibitors of cytokine-induced beta cell apoptosis, primary screen, luminescence. INS-1E cytokine-induced death, ATP luminescence, 48 h; percent of positive-control rescue, neutral wells zero. protection from apoptosis, % (concentration not given with the values). 300,000 compounds, 0.8% hits;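 active means all replicates at 75% or more, or half of them and the mean; inconclusive means half reach 75% but not the mean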;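 further: 0% = cytokine-treated negative control wells and 100% = positive control rescue; higher means more ATP so stronger rescue from cytokine killing; wells of about 40 µL received 100 nL stock; the first replicate is given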
# ALR inh – inhibitors of human ALR sulfhydryl oxidase, primary screen, biochemical, H2O2 detection, HRP-luminol luminescence, single point; inhibition, % (test concentration not listed); 290,000 compounds, 3.8% hits; purified ALR, DTT oxidation; FAD-linked sulfhydryl oxidase ALR (Homo sapiens), P55789;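 active means mean and each replicate at 75% or more; inconclusive means only one of the two met; inactive means neither met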;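 further: stock transfer was 7.5 nL into about 7.5 µL; 0% = neutral wells and 100% = wells with inactivated enzyme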
# Target sequence (P55789 whole entry, looked up): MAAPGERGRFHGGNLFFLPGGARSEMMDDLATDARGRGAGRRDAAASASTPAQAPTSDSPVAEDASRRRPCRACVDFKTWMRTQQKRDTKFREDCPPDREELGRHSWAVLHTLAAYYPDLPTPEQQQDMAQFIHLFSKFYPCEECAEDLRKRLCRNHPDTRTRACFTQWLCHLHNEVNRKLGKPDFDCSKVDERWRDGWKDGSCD
# RanGTP-Impb inh – inhibitors of RanGTP-importin-beta interaction, primary screen, biochemical, FRET, CFP-Ran, YFP-importin-beta, homogeneous; inhibition, % (test concentration not listed); Ran GTPase (GTP-bound) - importin-beta complex; cell-free CFP-Ran/YFP-importin-beta FRET ratio; 300,000 compounds, 1.1% hits;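 active means most replicates above 15%; inconclusive means exactly half above 15%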;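 further: 0% = DMSO wells and 100% = Ran loaded with GDP instead of GTP; wells of about 40 µL received 100 nL stock; the first replicate is given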
# Calb FLC – C. albicans growth inhibition with fluconazole, primary screen, CaCi-2 strain, Alamar Blue fluorescence | growth inhibition, % (no concentration beside the values) | 300,000 compounds, 0.57% hits | C. albicans CaCi-2 (fluconazole-resistant clinical isolate) + fluconazole, 48 h;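 active means most replicates above 75%; inconclusive means exactly half above 75%; inactive means most below 75%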;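 further: all wells also contain fluconazole at 8 µg/ml as a sub-toxic cotreatment; 0% = median of DMSO wells and 100% = median of geldanamycin control wells; wells of about 8 µL received 7.5 nL stock; the first replicate is given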
# T cruzi repl – inhibitors of intracellular T. cruzi growth, primary screen, luminescence, NIH3T3 host cells. AID 1885, 2009. T. cruzi beta-gal in NIH3T3, 90 h. inhibition, % (test concentration not listed). 300,000 compounds, 1.4% hits;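 active means mean inhibition across valid replicates above about 55%, limit read from the data; inconclusive means mean below that limit but half or more replicates reach it; inactive means mean below it, under half of replicates reach it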;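 further: signal also drops with host cell toxicity which is not excluded here; 0% = plate median of DMSO wells and 100% = zero luminescence signal; higher percent means less beta-gal luminescence so fewer parasites; stock transfer was 50 nL into about 50 µL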
# Ecoli rRNA inh OD600 – further read-out of Ecoli rRNA inh, marked with its call; OD600 change, %; measured here: OD600 growth;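 optical density of the mix in the first replicate; 0 = DMSO median and -100 = no signal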
# Ecoli rRNA inh RFP – second read-out of Ecoli rRNA inh, no call of its own (marks repeat the call); RFP signal change, %; measured here: RFP humanized mutant strains;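 first replicate; 0 = DMSO median and -100 = no signal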
# The depositor's hits bear a star; i = inactive; ? = inconclusive; nt = not tested or not shown. Not all compounds are listed. The share of hits here may be higher or lower than overall.
# Order of results – FGF22 binding	Ecoli rRNA inh	Ecoli rRNA inh OD600	Ecoli rRNA inh RFP	AF4-AF9 inh	Beta apoptosis	ALR inh	RanGTP-Impb inh	Calb FLC	T cruzi repl
COc1ccc(C(=O)NC(=S)N2CC(C)OC(C)C2)cc1OC (stereo not given)
    i	11.1	6.0	1.6	-4.4	-6.5	-25.6	1.7	-0.1	-8.0
Cc1ccc(S(=O)(=O)c2cn(CC(=O)Nc3ccccc3)c3ccc(F)cc3c2=O)cc1
    i	2.3	-0.3	-5.3	-1.2	-5.2	9.6	2.1	7.3	24.5
Cc1ccc(Cn2c(SCC(=O)NCc3ccco3)nc3ccsc3c2=O)cc1
    nt	nt	nt	nt	nt	13.5	-9.5	-3.4	-19.2	28.5
Clc1ccccc1CSc1nnc([C@@H]2CCCN2)o1
    i	1.5	3.8	-0.3	3.6	-11.8	nt	1.7	5.6	-5.4
NC(=O)c1c(NC(=O)c2ccccc2)sc2c1CCN(Cc1ccccc1)C2
    i	6.7	7.8	0.5	-8.6	9.3	-5.0	8.2	-6.5	0.7
CC(=O)c1c(C)oc2ccc(N(C(C)=O)S(=O)(=O)c3cccc4cccnc34)cc12
    i	15.1	7.9	-2.6	3.0	104.4*	-5.2	7.8	-5.9	14.7
Cc1ccccc1Nc1nnc(-c2ccc(C(=O)NCCO)cc2)c2ccccc12
    i	-2.2	2.0	1.7	-2.6	7.0	nt	4.0	25.1	-16.8
Cc1ccc(Nc2ncc3c(n2)CC(C)(C)CC3=O)cc1
    i	4.1	1.4	0.7	-1.1	0.0	9.2	1.1	-0.8	7.6
CCc1ccc(NS(=O)(=O)c2ccc(C)c(C(=O)N3CCOCC3)c2)cc1
    i	21.2	11.8	0.7	-0.6	0.9	2.5	3.8	1.2	2.4
O=C(Nc1ccc(NC(=O)c2ccccc2Cl)nc1)c1ccco1
    i	0.5	3.3	-1.2	3.2	nt	2.9	-2.1	-13.5	1.5
COc1ccc(S(=O)(=O)N2CCN(C(=O)c3ccco3)CC2)cc1C(C)(C)C
    i	13.4	8.8	6.5	1.4	-2.7	0.8	1.3	-3.9	11.6
Cc1ccc(NC(=O)COC(=O)C(NS(=O)(=O)c2ccc(Cl)cc2)C(C)O)cc1C (stereo not given)
    i	nt	nt	nt	1.2	-7.5	7.4	3.9	-0.9	-3.0
CC(NC(=O)CN(C)CC(=O)Nc1ccc(Cl)cc1)c1ccc(F)cc1 (stereo not given)
    i	-36.2	-44.0	-10.7	-1.1	4.1	nt	nt	nt	nt
CC(C)N(C(=O)COC(=O)c1cccc(C(=O)OCC(=O)N(C(C)C)C(C)C)n1)C(C)C
    i	13.7	0.9	2.2	-0.2	nt	-8.2	-0.8	-2.1	-9.1
CCCc1noc2c1/C(=N\O)CC(CC(C)SCC)C2 (stereo not given)
    i	-20.5	-16.0	-9.3	3.3	1.3	-0.1	-1.6	-4.8	-7.5
COc1ccc(OC)c(NC(=O)c2[nH]c(C)c(C(C)=O)c2C)c1
    nt	nt	nt	nt	nt	1.5	-19.1	-4.0	-36.7	6.5
CC(C)(C)NC(=O)NC(=O)COC(=O)c1ccc(OC(F)(F)F)cc1
    nt	nt	nt	nt	nt	-2.6	-4.4	?	11.1	-9.6
CCOC(=O)C1=C(N)Oc2cc(C)[nH]c(=O)c2C1c1ccncc1 (stereo not given)
    nt	nt	nt	nt	nt	-4.8	3.3	0.8	-8.3	-1.3
Cc1ccc(S(=O)(=O)N2CCOCC2)cc1C(=O)NCCN1C(=O)S/C(=C\c2ccccc2Cl)C1=O
    nt	nt	nt	nt	nt	2.6	-5.8	10.3	4.2	6.7
O=C(NCCN1CCOCC1)C1CCC(=O)N1Cc1ccccc1Cl (stereo not given)
    nt	nt	nt	nt	nt	6.3	7.9	-2.7	-0.7	-3.2
Cc1cccc(N2CCN(C(=O)C3CCC(=O)N(C4CC4)C3)CC2)c1C (stereo not given)
    i	3.5	4.7	-0.7	-2.5	0.7	-3.4	0.8	-8.3	-8.7
CCOc1ccc(N=C(/C(C(=O)C(=O)N2CCOCC2)=C(/O)c2ccccc2)c2ccccc2)cc1
    i	2.7	7.8	0.6	1.9	3.6	6.8	-3.5	-7.3	-2.9
N/C(=N\OC(=O)c1ccc(Br)cc1)c1ccccc1
    nt	nt	nt	nt	nt	8.1	-4.6	-2.7	3.7	-6.1
COc1ccc(S(=O)(=O)N(C)C(C)CCc2ccco2)cc1 (stereo not given)
    i	1.9	1.2	3.8	-0.3	-6.8	13.4	1.4	3.9	1.5
CC1CN(S(=O)(=O)c2ccccc2)CC(C)O1 (stereo not given)
    nt	4.3	6.5	-2.2	nt	2.7	-10.2	0.5	2.8	0.6
c1ccc(Cc2nnc(N3CCOCC3)c3ccccc23)cc1
    nt	nt	nt	nt	nt	3.3	-2.4	5.0	-0.3	13.5
CC(=O)Nc1nnc(SCC(=O)Nc2ccc3c(c2)OCCO3)s1
    i	4.8	3.8	1.8	-1.0	-1.6	-2.9	0.2	-0.8	-3.5
CCCCNC(=O)O[C@H]1C[C@@H]2CCN3C(=O)CCC[C@H]([C@H]1Cc1ccccc1)[C@H]23
    i	4.3	13.8	-2.9	-2.1	-3.8	3.0	0.2	-2.6	-77.8
CCn1c(/C=C/c2ccccc2F)nc2ccccc2c1=O
    i	-18.6	-18.2	-2.5	4.1	-0.8	-15.0	-3.6	-1.8	10.8
CC(=O)c1ccc(C(=O)N2CCCC(CO)(Cc3ccccc3C)C2)s1 (stereo not given)
    i	-19.1	-18.8	-0.5	0.2	nt	nt	7.7	-10.9	1.3
Cc1ccc(/C=C/C(=O)OCC(=O)Nc2cccc(S(=O)(=O)N(C)C)c2)o1
    nt	nt	nt	nt	nt	2.7	nt	-0.2	-13.1	-4.7
c1cc2cn[nH]c2cc1NC1CCCCCC1
    nt	nt	nt	nt	nt	-8.5	99.0*	?	-6.7	-5.1
O=C(O)CC1(CC(=O)Nc2cc(F)ccc2Cl)CCCCC1
    i	nt	nt	nt	0.0	1.0	0.2	0.9	-2.0	nt
CCCCN(CC)c1nc(N)c2c(N)nc(OCC)cc2c1C#N
    nt	nt	nt	nt	nt	-2.0	-0.7	-1.4	-5.3	38.0
S=C(NCc1ccco1)Nc1ccc(N2CCOCC2)cc1
    nt	nt	nt	nt	nt	0.3	60.9	1.4	2.1	-9.3
CC1(C)CC(=O)C(C(c2ccc(F)cc2)C2C(=O)CC(C)(C)CC2=O)C(=O)C1
    i	18.4	3.8	-0.5	-3.3	nt	18.2	1.7	0.0	-19.3
COc1ccc(CCNC(=O)C2CCN(C(=O)c3cccs3)CC2)cc1
    i	11.8	12.0	3.8	-0.4	1.6	-7.6	-3.0	-19.5	-14.3
O=C(NCCS(=O)(=O)NCc1ccc(F)cc1)c1ccccc1
    i	-0.8	0.9	-0.3	-2.1	3.1	-4.9	0.5	-2.7	-25.4
COc1ccc(C(=S)N2CCCC2)cc1Br
    i	-1.7	-10.2	0.4	-0.8	-2.3	4.0	-3.1	2.3	-10.8
COc1ccccc1N1CC(C(=O)NCCN2C(=O)S/C(=C\c3cccnc3)C2=O)CC1=O (stereo not given)
    i	1.2	3.8	-3.0	0.7	-6.0	nt	nt	nt	nt
C=CCSc1nc(N)c(C(=O)Nc2ccccc2)cc1C#N
    nt	nt	nt	nt	nt	6.2	nt	4.0	1.5	-8.6
CCOc1ccc(C(=O)CCC(=O)N(CC)CC(=O)NCc2ccc(Cl)cc2)cc1
    i	-10.1	-4.8	2.6	-2.6	-0.2	1.7	-1.7	8.3	8.0
N#Cc1c(Cl)cccc1-n1ccnc1
    nt	nt	nt	nt	nt	-5.9	-4.9	-4.0	3.6	-13.6
COc1cc(C2NC(=O)C(C#N)=C(Nc3cccc(C)c3)S2)ccc1O (stereo not given)
    i	0.4	3.5	2.8	nt	-7.5	nt	-2.2	0.1	4.6
Cc1noc(C)c1C(=O)NC1=NCCS1
    i	11.8	12.3	0.5	-2.0	0.2	-2.4	5.4	0.1	0.0
N/C(=N\OC(=O)CCCOc1ccccc1)c1ccccc1
    i	-7.2	-0.8	-1.8	-5.8	1.3	-2.4	-3.6	-27.0	-9.1
CS(=O)(=O)C1=C(O)C(=O)N(CCCC(=O)O)C1c1ccccc1F (stereo not given)
    nt	nt	nt	nt	nt	1.4	10.6	0.2	-8.8	-6.7
CCCN1CCC(NC(=O)Nc2ccc(Br)cc2)CC1
    i	nt	nt	nt	-2.6	2.4	-3.1	1.3	18.3	4.1
CC1C(=O)CC(c2ccccc2)N(C)C1c1ccccc1 (stereo not given)
    i	-0.1	-6.9	-7.4	-1.0	nt	-1.7	1.8	-1.5	0.5
OCCC1CN(Cc2cccc(OC3CCCC3)c2)CCN1Cc1ccsc1 (stereo not given)
    i	-22.9	-26.0	-2.3	4.0	2.6	-2.6	?	-11.6	16.3
OCCNc1ncnc2ccc(Br)cc12
    nt	nt	nt	nt	nt	-8.8	-2.6	-0.8	-1.7	-6.0
COc1ccc(CNC(=O)CCCN2C(=O)c3ccccc3C2=O)cc1
    i	7.5	3.1	-1.8	-1.2	-1.0	-8.4	4.1	-10.5	-9.4
N#CN/C(=N\S(=O)(=O)c1ccccc1)c1ccccc1
    i	4.8	2.8	-1.4	-7.3	-1.8	-16.7	0.4	-8.1	-1.8
Cc1c(NC(=O)C2CCCO2)cccc1[N+](=O)[O-] (stereo not given)
    nt	nt	nt	nt	nt	nt	-4.6	-3.1	3.7	-9.0
COc1cc(CNC2CCCCC2OC)cc(OC)c1OC (stereo not given)
    i	14.0	5.9	-0.8	-2.4	0.5	-5.1	-1.3	-9.4	2.1
Cc1ccc(C(=O)N/C(N)=N/c2nc3ccccc3o2)cc1
    nt	15.8	9.5	2.1	nt	-2.3	-4.4	6.9	4.2	-12.4
COc1ccc(CCNC(=O)c2cc(S(=O)(=O)N3CCC4(CC3)OCCO4)ccc2F)cc1OC
    i	-3.9	6.6	10.5	-0.5	-7.3	-2.5	-0.5	7.5	0.3
C=CCc1cc(Cl)ccc1OCCOCCNC(C)CC (stereo not given)
    i	-24.9	-26.9	-3.4	4.5	10.2	-86.0	-0.7	-32.7	44.5
C1CCc2nc3c(nc2C1)CCCC3
    i	nt	nt	nt	-1.6	-6.8	-6.0	-3.6	21.6	2.9
CCCCn1c(CN(Cc2ccccc2)Cc2ccccc2)nc2c1c(=O)n(C)c(=O)n2C
    nt	nt	nt	nt	nt	0.4	-21.6	?	-6.7	36.8
